# ALOX15B inhib – blocks human 15-lipoxygenase 2 activity; O15296; purified 15hLO-2, xylenol orange hydroperoxide absorbance; Potency, µM (top dose mostly 57.1 µM), for the others: top-dose activity change, negative = inhibition, hits mostly inhibitors; actives 0.56% (n = 110,000); further: potency means the concentration at half of the fitted maximal effect; nearly all actives have a fitted effect of over 60% in size; many of its hits are not listed in these tables
#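 Enzyme 50 nM, AA 45 uM, 25 mM Hepes pH 7.5 + 0.01% Triton X-100; cpd preinc 15 min RT, rxn 90 min RT; stop/detect with 200 uM XO + 300 uM Fe(II) in 50 mM H2SO4, 30 min; A573/A405.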
# IMPase cell inh – cell-permeable inhibitors of inositol monophosphatase (IMPase). P97697. CHO-M1 cells, IP1 accumulation, HTRF TR-FRET ratio. inhibition (IP1 accumulation), % at 46.1 µM. 120,000 tested, under 10 active. AID 901; active means well fitted curve in the direction sought with a large enough effect in the signal ratio, not every such curve was filed as active; inconclusive means small, poorly fitted or top-dose-only effect, or a change in a side signal; inactive means no such curve, though single readings can be large or run the other way; the % refers to the signal ratio;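 further: cells stimulated with carbachol in lithium chloride buffer; plate controls were DMSO basal wells for no effect and reference inhibitor wells for full effect; higher means more IMPase inhibition seen as more IP1 and lower FRET ratio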
# Target sequence (P97697 whole entry, looked up): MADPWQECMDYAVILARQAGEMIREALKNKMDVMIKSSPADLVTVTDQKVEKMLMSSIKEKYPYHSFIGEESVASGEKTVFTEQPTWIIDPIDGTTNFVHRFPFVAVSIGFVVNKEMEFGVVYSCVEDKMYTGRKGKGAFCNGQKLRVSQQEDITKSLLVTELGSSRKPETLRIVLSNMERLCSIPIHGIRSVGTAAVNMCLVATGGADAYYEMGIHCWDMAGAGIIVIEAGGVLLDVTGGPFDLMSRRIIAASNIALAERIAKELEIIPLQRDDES
#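 In this qHTS, compounds (final up to 46 uM) act on CHO-M1 cells that are then activated through the M1 receptor with carbachol, in pH 7.4 buffer containing 50 mM LiCl, for 30 min. IP1 accumulation is quantified by the IP-One immunoassay.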
# 12-hLO inh – blocks human 12-lipoxygenase activity; AID 1452; purified 12-hLO, xylenol orange hydroperoxide absorbance; Potency, µM (titrated, usually from 57.1 µM), for the others: at the highest dose activity change, negative = inhibition, actives largely listed as inhibitors; actives 0.12% (n = 150,000); further: potency means the concentration at half of the fitted maximal effect; nearly all actives have a fitted effect of over 55% in size; many of its hits are not listed in these tables
#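 Purified human 12hLO (150 nM final) was preincubated with compounds for 15 min at room temperature in 25 mM Hepes pH 7.0, 0.01% Triton X-100, then reacted with 40 uM arachidonic acid for 30 min. Hydroperoxide was detected with ferrous iron/xylenol orange.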
# The depositor's hits bear a star; ? = inconclusive; . = not tested or not shown; [ ] = remark or other dose. Unless noted, the call rests on the fitted dose curve; in most records, active means well fitted curve in the direction sought with a large enough effect; inconclusive means small, poorly fitted or top-dose-only effect, or another doubt; inactive means no such curve, though single readings can be large; an effect the other way counts as inactive or inconclusive. Unless noted, on the % scale 0 is the no-effect control and ±100 the full control effect. These rows are one share of the data; the hit share may differ from the screen's.
Structure	ALOX15B inhib	IMPase cell inh	12-hLO inh
CCCC(O)(CCC)C(=O)NNc1ccccc1	?	8.5	?
C=CCn1cnc2scc(-c3ccccc3)c2c1=O	-0.3%	1.4	0.8%
O=C(CSc1nc2c(c(=O)n1-c1ccc(F)cc1)SCC2)N1CCCC1	.	-3.3	1.3%
CCOC(=O)c1c(C)n(C)c2ccc(OC)c(NC(=O)CN3CCN(Cc4ccccc4)CC3)c12	8.3%	0.8	7.3%
CCOC(=O)c1c(C)oc2ccc(O)cc12	-1.5%	-6.9	-8.5%
Cc1cccc(CSCCNC(=O)CSCc2ccc([N+](=O)[O-])cc2)c1	-8.9%	3.1	-4.5%
N[C@H](Cc1cc(I)c(Oc2ccc(O)c(I)c2)c(I)c1)C(=O)O	-5.4%[25.6 µM]	1.3[20.6 µM]	-6.2%[25.6 µM]
NC(Cc1cc(I)c(Oc2ccc(O)c(I)c2)c(I)c1)C(=O)O (configuration not stated)	-18.6%	.	-7.8%
Cc1c(NC(=O)OCCNC(=O)Nc2ccccc2)sc(=S)n1C	-20.4%	9.2	-4.1%
Cc1ccc2c(c1)SC1=NC(c3ccccc3)(C(F)(F)F)NC(=O)N12 (configuration not stated)	-1.1%	6.2	-0.6%
CN(C)c1ccc(/C=c2\sc3nc(-c4ccccc4)nn3c2=O)cc1	-6.5%	-1.9	5.3%
